# ID4 SMM = ID4 (human) binding. actives 1.2% (n = 31,000). AID 624137. P47928. calls only. small molecule microarray, Flag-ID4 binding, fluorescence F/B;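 active means spot signal over background at p below 0.07 in all four prints; compounds were printed on slides so no solution concentration is given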;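 further: a binder raises fluorescence above local background on the spot; about 2 pmol printed per array spot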
# Target sequence (P47928 whole entry, looked up): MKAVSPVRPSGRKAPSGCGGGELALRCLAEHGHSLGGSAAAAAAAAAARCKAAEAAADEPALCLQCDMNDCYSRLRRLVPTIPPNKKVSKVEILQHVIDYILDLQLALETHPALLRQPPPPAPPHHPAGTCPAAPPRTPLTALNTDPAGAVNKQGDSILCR
# STAT3 SMM = STAT3 (human) binding; Small molecule microarray, His-STAT3 binding, anti-His fluorescence; actives 0.2% (n = 17,000); P40763; calls only;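 active means compounds whose four printed spots each show fluorescence over background unusually high for their array block, chance value under 7%; compounds were printed on slides so no solution concentration is given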;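 further: about 2 pmol printed per array spot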
# c-Myc SMM = c-Myc (human) binding; AID 624141; actives 1.5% (n = 17,000); calls only; small molecule microarray, His-c-Myc binding, anti-His fluorescence; P01106;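 active means spot fluorescence over background with P-value below 7% in all four replicate spots, showing protein binding; compounds were printed on slides so no solution concentration is given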;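 further: score is binary with 100 for all four spots passing and 0 otherwise; about 2 pmol printed per array spot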
# Target sequence (P01106 whole entry, looked up): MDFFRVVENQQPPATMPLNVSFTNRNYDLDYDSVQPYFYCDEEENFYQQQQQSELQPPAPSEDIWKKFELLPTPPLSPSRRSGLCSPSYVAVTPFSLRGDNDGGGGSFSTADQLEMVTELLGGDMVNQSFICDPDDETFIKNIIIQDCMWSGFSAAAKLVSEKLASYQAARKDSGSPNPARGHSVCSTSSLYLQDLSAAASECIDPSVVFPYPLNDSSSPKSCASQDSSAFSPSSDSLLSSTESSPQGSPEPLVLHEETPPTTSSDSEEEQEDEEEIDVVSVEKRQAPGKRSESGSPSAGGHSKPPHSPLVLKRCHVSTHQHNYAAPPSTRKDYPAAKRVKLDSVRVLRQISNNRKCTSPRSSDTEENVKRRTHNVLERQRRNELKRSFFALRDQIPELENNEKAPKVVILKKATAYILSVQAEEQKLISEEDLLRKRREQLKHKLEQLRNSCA
# p53 mut binder = binds human mutant p53 on microarray; small molecule microarray binding, anti-GST fluorescence; calls only; actives 0.4% (n = 17,000);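 active means compounds whose four printed spots each glow above background more than chance allows, each with a p-value under 7%; compounds were printed on slides so no solution concentration is given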;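 further: about 2 pmol printed per array spot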
# Calls only; i = inactive; . = no result given; + = active, no number. An excerpt, so the mix of outcomes need not match the whole.
SMILES,ID4 SMM,STAT3 SMM,c-Myc SMM,p53 mut binder
Cc1cc(S(=O)(=O)NC2CCCCC2)ccc1OCC(=O)O,i,i,+,i
Cc1ccc(S(=O)(=O)Nc2ccc3c(c2)C(=O)N([C@H](C)CO)C[C@H](C)[C@H](CN(C)C(=O)C2CCCCC2)OCCCC[C@H](C)O3)cc1,.,i,i,i
CNC[C@H]1Oc2ccc(NS(=O)(=O)c3cn(C)cn3)cc2CC(=O)N([C@H](C)CO)C[C@H]1C,i,i,i,i
CNC[C@H]1OCCCC[C@H](C)Oc2ccc(N(C)C)cc2C(=O)N([C@H](C)CO)C[C@@H]1C,i,i,i,i
C[C@@H]1CN([C@H](C)CO)C(=O)c2cc(NS(=O)(=O)c3ccc(Cl)cc3)ccc2O[C@H]1CN(C)C(=O)NC1CCCCC1,i,i,i,i
C[C@@H]1CCCCO[C@@H](CN(C)C)[C@@H](C)CN([C@@H](C)CO)C(=O)c2cc(NC(=O)CCC(F)(F)F)ccc2O1,i,i,i,i
C[C@H](CO)N1C[C@H](C)[C@@H](CN(C)C)Oc2c(NS(C)(=O)=O)cccc2C1=O,i,i,i,i
CC(=O)N(O)[C@@H]1c2cc(C#N)ccc2OC(C)(C)[C@H]1O,i,i,i,i
C[C@H]1CN([C@@H](C)CO)C(=O)c2cc(NS(=O)(=O)c3ccc(F)cc3)ccc2O[C@@H]1CN(C)C(=O)Nc1ccc2c(c1)OCO2,.,i,i,i
C=CCn1c(SCc2nc3ccccc3[nH]2)nnc1-c1ccccc1,i,i,i,i
COc1ccc(C#Cc2ccc3c(c2)[C@]2(C(=O)N3)[C@H](C(=O)Nc3nc4ccccc4s3)[C@H]3C(=O)O[C@H](c4ccccc4)[C@H](c4ccccc4)N3[C@@H]2c2ccc(OCCO)cc2)cc1,.,i,i,i
C[C@H]1CCCCO[C@H](CN(C)C(=O)c2ccccc2)[C@@H](C)CN([C@@H](C)CO)C(=O)c2cc(NC(=O)Nc3ccc4c(c3)OCO4)ccc2O1,i,i,i,+
CS(=O)(=O)Nc1ccc(C(=O)NCc2ccccn2)cc1,i,i,i,i
C[C@@H]1CCCCO[C@@H](CN(C)C(=O)c2ccccc2)[C@@H](C)CN([C@@H](C)CO)C(=O)c2cc(NS(C)(=O)=O)ccc2O1,i,i,i,i
C[C@@H]1CN([C@H](C)CO)C(=O)c2cc(NC(=O)Cc3ccccc3)ccc2O[C@H]1CN(C)CC1CC1,i,i,i,i
c1ccc(C(NCc2cccnc2)(c2ccccc2)c2ccccc2)cc1,i,i,i,i
C[C@@H]1CN([C@H](C)CO)C(=O)Cc2cc(NC(=O)C3CC3)ccc2O[C@H]1CN(C)S(=O)(=O)c1ccccc1,.,i,i,i
Cc1ccc2nc(NCCCO)[nH]c2c1,i,i,i,i
CCO[C@@H]1OC(C(=O)O)=C[C@H](C)[C@H]1CCCO,i,i,i,i
C[C@H](CO)N1C[C@H](C)[C@H](CN(C)C(=O)CCC(F)(F)F)OCCCC[C@H](C)Oc2ccc(NC(=O)c3ccccc3)cc2C1=O,.,i,i,i
COc1ccc(CN(C)C[C@H]2Oc3ccc(NC(=O)Cc4ccccc4)cc3C(=O)N([C@H](C)CO)C[C@@H]2C)cc1,i,i,i,i
C[C@H]1CN([C@@H](C)CO)C(=O)CCCn2cc(nn2)CO[C@H]1CN(C)C(=O)Nc1ccc(C(C)(C)C)cc1,i,i,i,i
C[C@@H]1CCCCO[C@H](CN(C)C(=O)c2ccccc2)[C@@H](C)CN([C@@H](C)CO)C(=O)c2cc(NS(=O)(=O)c3cn(C)cn3)ccc2O1,i,i,i,i
COc1ccc(S(=O)(=O)N(C)C[C@H]2Oc3c(NS(=O)(=O)c4cccs4)cccc3C(=O)N([C@@H](C)CO)C[C@H]2C)cc1,i,i,i,i
CCN1C(=O)C=CC1=O,i,i,i,i
COC(=O)CSc1nc(C)cc(C)n1,i,i,i,i
COc1ccc(CN(C)C[C@H]2Oc3ccc(NC(=O)Cc4ccccc4)cc3CC(=O)N([C@@H](C)CO)C[C@H]2C)cc1,i,i,i,i
CNC[C@@H]1Oc2ccc(NC(=O)C3CC3)cc2C(=O)N([C@H](C)CO)C[C@@H]1C,i,i,i,i
Cc1ccc(NC(=O)C2Cc3ccccc3CN2S(=O)(=O)c2ccc(C)cc2)cc1 (stereo not drawn),i,i,i,i
C[C@H]1CN([C@@H](C)CO)C(=O)c2cccc(NC(=O)C3CCOCC3)c2O[C@H]1CN(C)Cc1ccc(C(=O)O)cc1,i,i,i,i
CNC[C@H]1OCCCC[C@H](C)Oc2ccc(NC(=O)C3CCCCC3)cc2C(=O)N([C@H](C)CO)C[C@@H]1C,i,i,i,i
Cc1ccccc1OCC(=O)Nc1cccc(-c2nc3ccccc3s2)c1,i,i,i,i
CCCN(CC1CC1)c1nc(C)nc(Nc2c(Cl)cc(Cl)cc2Cl)c1Cl,i,i,i,i
COc1ccc(NC(=O)Nc2ccc3c(c2)C(=O)N([C@H](C)CO)C[C@@H](C)[C@H](CN(C)C)O3)cc1,i,i,i,i
CC(Oc1ccc(Cl)cc1Cl)C(=O)NC(=S)Nc1cccc(NC(=O)c2cccs2)c1 (stereo not drawn),i,i,i,i
Cc1noc(C)c1NC(=O)N(C)C[C@H]1Oc2ccc(NS(=O)(=O)c3cccs3)cc2C(=O)N([C@H](C)CO)C[C@H]1C,i,i,i,i
COc1ccc(S(=O)(=O)N(C)C[C@@H]2Oc3ccc(NC(=O)Nc4c(C)noc4C)cc3C(=O)N([C@@H](C)CO)C[C@H]2C)cc1,i,i,i,i
CCCc1c(C(=O)O)c(O)cc2c1C(=O)c1c(O)cccc1C2=O,i,i,i,i
CCCC1=CC(=O)C(O)C1O (stereo not drawn),i,i,i,i
Cc1c(Cl)cccc1NC(=O)COc1ccc(S(=O)(=O)N2CCOCC2)cc1,i,i,i,i

# Of the compounds above, four contain a COOH group:
SMILES,ID4 SMM,STAT3 SMM,c-Myc SMM,p53 mut binder
Cc1cc(S(=O)(=O)NC2CCCCC2)ccc1OCC(=O)O,i,i,+,i
CCO[C@@H]1OC(C(=O)O)=C[C@H](C)[C@H]1CCCO,i,i,i,i
C[C@H]1CN([C@@H](C)CO)C(=O)c2cccc(NC(=O)C3CCOCC3)c2O[C@H]1CN(C)Cc1ccc(C(=O)O)cc1,i,i,i,i
CCCc1c(C(=O)O)c(O)cc2c1C(=O)c1c(O)cccc1C2=O,i,i,i,i

# One compound at a time, as listed above. Order of screens: ID4 SMM, STAT3 SMM, c-Myc SMM, p53 mut binder
# Profile of `CCCC1=CC(=O)C(O)C1O` (stereo not drawn) : i, i, i, i
# Profile of `COc1ccc(CN(C)C[C@H]2Oc3ccc(NC(=O)Cc4ccccc4)cc3C(=O)N([C@H](C)CO)C[C@@H]2C)cc1` : i, i, i, i
# Profile of `COc1ccc(S(=O)(=O)N(C)C[C@H]2Oc3c(NS(=O)(=O)c4cccs4)cccc3C(=O)N([C@@H](C)CO)C[C@H]2C)cc1` : i, i, i, i
# Profile of `Cc1c(Cl)cccc1NC(=O)COc1ccc(S(=O)(=O)N2CCOCC2)cc1` : i, i, i, i
# Profile of `C[C@H]1CN([C@@H](C)CO)C(=O)c2cccc(NC(=O)C3CCOCC3)c2O[C@H]1CN(C)Cc1ccc(C(=O)O)cc1` : i, i, i, i

# (continued)
SMILES,ID4 SMM,STAT3 SMM,c-Myc SMM,p53 mut binder
O=C(N[C@H](CO)[C@H](O)c1ccc([N+](=O)[O-])cc1)C(Cl)Cl,.,i,i,i
C[C@@H]1CN([C@@H](C)CO)C(=O)c2cccc(NC(=O)Nc3ccc4c(c3)OCO4)c2O[C@@H]1CN(C)Cc1ccc(-c2ccccc2)cc1,.,i,i,i
C[C@@H]1CN([C@H](C)CO)C(=O)c2cccc(NC(=O)Nc3cccc4ccccc34)c2O[C@@H]1CN(C)S(=O)(=O)c1cn(C)cn1,i,i,i,i
C[C@H](CO)N1C[C@H](C)[C@@H](CN(C)C(=O)Nc2ccccc2)Oc2c(NC(=O)c3nc4ccccc4s3)cccc2C1=O,i,i,i,i
C[C@@H]1CCCCO[C@@H](CN(C)C(=O)Nc2ccccc2)[C@H](C)CN([C@@H](C)CO)C(=O)c2cc(NC(=O)CCCN(C)C)ccc2O1,i,i,i,i
O=C(Nc1ccccc1)c1ccc(NCC2CCCO2)c(S(=O)(=O)N2CCOCC2)c1 (stereo not drawn),i,i,i,i
NCCNc1ccc([N+](=O)[O-])c(Sc2nc3ccccc3[nH]2)c1,i,i,i,i
COc1c2ccoc2nc2c(OC)c(OC[C@@H](O)C(C)(C)O)ccc12,i,i,i,i
C[C@@H]1CN([C@@H](C)CO)C(=O)Cc2cc(NC(=O)C3CC3)ccc2O[C@H]1CN(C)Cc1ccc(C(F)(F)F)cc1,i,i,i,i
Cc1onc(-c2ccccc2Cl)c1C(=O)NCc1ccc(N2CCCC2=O)cc1,i,i,i,i
C[C@H]1CN([C@@H](C)CO)C(=O)Cc2cc(NS(C)(=O)=O)ccc2O[C@H]1CN(C)Cc1ccc(-c2ccccc2)cc1,i,i,i,i
CCOC(=O)c1c(-c2ccc(Cl)cc2)csc1NC(=O)C1CCCCC1C(=O)O (stereo not drawn),i,i,i,i
C[C@H](CO)N1C[C@H](C)[C@H](CN(C)C)Oc2ccc(NC(=O)Nc3ccc4c(c3)OCO4)cc2CC1=O,i,i,i,i
Cc1c(C(=O)C2C(=O)C(=O)N(Cc3cccnc3)C2c2cccs2)cnn1-c1ccccc1 (stereo not drawn),i,i,i,i
CC1(C)S[C@@H]2[C@H](NC(=O)[C@H](N)c3ccc(O)cc3)C(=O)N2[C@H]1C(=O)O,.,i,i,i
COc1cc2c(cc1NC(=O)COC(C)=O)oc1ccccc12,i,i,i,i
CCOC(=O)c1ccccc1NC(=O)c1cc(Cl)ccc1NC(=O)c1ccc(OC)cc1,i,i,i,i
C[C@H](CO)N1C[C@H](C)[C@@H](CN(C)C(=O)CCC(F)(F)F)OCc2cn(nn2)CCCC1=O,i,i,i,i
COC(=O)CNC(=O)c1cn(-c2ccccc2)nc1-c1cccs1,i,i,i,i
O[C@]12CO[C@H](c3ccc4c(c3)OCO4)[C@H]1CO[C@@H]2c1ccc2c(c1)OCO2,i,i,i,i
CNC[C@@H]1Oc2ccc(NC(=O)NC(C)C)cc2CC(=O)N([C@H](C)CO)C[C@@H]1C,i,i,i,i
CC(C)NC(=O)N(C)C[C@H]1OCCCC[C@H](C)Oc2ccc(NC(=O)CCC(F)(F)F)cc2C(=O)N([C@@H](C)CO)C[C@H]1C,i,i,i,i
C[C@@H]1CN([C@H](C)CO)C(=O)c2cc(NC(=O)Cc3ccccc3)ccc2O[C@H]1CN(C)C(=O)Nc1ccccc1,i,i,i,i
C[C@H](CO)N1C[C@H](C)[C@H](CN(C)S(=O)(=O)c2ccc(F)cc2)Oc2ccc(NC(=O)Nc3ccc(C(F)(F)F)cc3)cc2CC1=O,.,i,i,i
COCCOC(=O)N1C(=O)[C@@]2(c3ccccc31)[C@H](C(=O)N1CCc3cc(OC)c(OC)cc3C1)[C@H]1C(=O)O[C@H](c3ccccc3)[C@H](c3ccccc3)N1[C@@H]2c1ccc(O)cc1,i,i,i,i
C[C@H](CO)N1C[C@H](C)[C@@H](CN(C)Cc2ccncc2)Oc2ccc(NC(=O)Nc3ccccc3)cc2C1=O,i,i,i,i
COCC(C)NS(=O)(=O)c1ccc(NC(C)=O)cc1 (stereo not drawn),i,i,i,i
Cc1nnc(SCc2cc(=O)[nH]c(Nc3nc(C)c4cccc(C)c4n3)n2)s1,i,i,i,i
O=C(CSCc1cc(=O)[nH][nH]1)Nc1ccc(F)cc1,i,i,i,i
CNC[C@@H]1OCCCC[C@H](C)Oc2ccc(N(C)C)cc2C(=O)N([C@@H](C)CO)C[C@@H]1C,i,i,i,i
C[C@H](CO)N1C[C@H](C)[C@@H](CN(C)Cc2ccc3c(c2)OCO3)Oc2ccc(NC(=O)CCCN(C)C)cc2C1=O,i,i,i,i
COc1cc(/C(C)=C/C(C)=C\C(=O)O)oc(=O)c1C,i,i,i,i
COc1ccc(C#Cc2ccc3c(c2)[C@]2(C(=O)N3)[C@H](c3ccccc3OCCO)N3[C@H](c4ccccc4)[C@H](c4ccccc4)OC(=O)[C@H]3[C@@H]2C(=O)NC[C@H](O)c2ccccc2)cc1,i,i,i,i
Cc1noc(C)c1NC(=O)Nc1ccc2c(c1)CC(=O)N([C@H](C)CO)C[C@H](C)[C@H](CN(C)C(=O)NC(C)C)O2,i,i,i,i
COc1ccc(CN(C)C[C@@H]2OCCCC[C@@H](C)Oc3ccc(NC(=O)NC4CCCCC4)cc3C(=O)N([C@H](C)CO)C[C@H]2C)cc1,.,i,i,i
C[C@H](CO)N1C[C@H](C)[C@@H](CN(C)S(=O)(=O)c2cn(C)cn2)Oc2c(NC(=O)c3cnccn3)cccc2C1=O,i,i,i,i
CCN1CCN(c2c(Cl)cccc2NC(=O)COc2ccc(OC)cc2)CC1,i,i,i,i
C[C@@H]1CCCCO[C@@H](CN(C)Cc2ccc(Cl)c(Cl)c2)[C@H](C)CN([C@H](C)CO)C(=O)c2cc(N(C)C)ccc2O1,.,i,i,i
C[C@@H]1CN([C@H](C)CO)C(=O)c2cccc(NS(=O)(=O)c3ccc(Cl)cc3)c2O[C@@H]1CN(C)C(=O)Nc1cccc2ccccc12,i,i,i,i
C[C@H](CO)N1C[C@H](C)[C@@H](CN(C)Cc2ccc(Oc3ccccc3)cc2)Oc2ccc(NC(=O)Nc3ccc(F)cc3)cc2C1=O,.,i,i,i
